# Source: PubChem
# D2 ag = agonists of human D2 dopamine receptor (beta-arrestin); P14416; AID 624465; 360,000 tested, 0.084% active; activation, % (test concentration not listed); DiscoveRx PathHunter D2 beta-arrestin, luminescence, 90 min; 100% = 57 uM dopamine signal; in the data active = activation above about 40%; inconclusive = about 15% to 40%; inactive = below about 15%; further: compound concentration not given in the record; the text of the record calls up to 30% inactive
#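 DiscoveRx PathHunter D2 beta-arrestin cells (2,100/well) attached overnight, then compound-stimulated 90 min at 37 C in HBSS/10 mM HEPES/0.1% Tween-20 buffer; beta-galactosidase complementation read by luminescence after 1 h at ambient temperature. Dopamine 57 uM final (EC100) as control.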
# CtBP-E1A inh = CtBP/E1A binding inhibition; AID 651724; 340,000 tested, 0.49% active; AlphaScreen GST-E1A/His-CtBP binding, 1536-well; active compounds read low; control for the full effect not named in the record; activity change, % (no concentration beside the values); in the data active means activity change below about -65%; inconclusive means about -30% to -65%; inactive means above about -30%; further: on the % scale 0 is the no-effect control and ±100 the full control effect
#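 AlphaScreen with 125 nM GST-E1A and 125 nM His-CtBP (5X stocks) in Tris pH 8.0, 300 mM NaCl, BSA, Tween 20, TCEP. Compounds preincubated 2 h at 37 deg C, then glutathione donor/nickel acceptor beads added for 1 h at 37 deg C in dark.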
# D2 potentiator = potentiates the human D2 dopamine receptor allosterically; P14416; potentiation, % (no concentration beside the values); DiscoveRx D2 beta-arrestin cells, luminescence, 90 min; 100% = 57 uM dopamine signal; 360,000 tested, 0.23% active; active = potentiation of 50% or more; inconclusive = 30% to 50%; inactive = 30% or less;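 further: compound concentration not given in the record; tested on top of an EC20 dose of dopamine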
#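 PathHunter beta-arrestin assay in DiscoveRx D2 cells. Compounds were added with an EC20 of dopamine (50 nM final) for 90 min at 37 deg C. Luminescence was read 1 h after detection reagent, with 57 uM dopamine as the EC100 control.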
# PINK1 modulator = modulators of PINK1 expression. PINK1 immunofluorescence, high-content cytometry, 24 h. Potency, µM (titrated, usually from 76.6 µM), without a hit: at the top dose activation (PINK1 increase), most hits filed as activators. 410,000 tested, 0.2% active; active = well fitted activation curve with a large enough effect; inconclusive = small, poorly fitted or top-dose-only effect; inactive = flat fitted curve, though single readings scatter; cell line not stated here;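 further: potency means the concentration at half of the fitted maximal effect; % of control where 0% means no effect; nearly all actives have a fitted effect of over 65% in size; a mitochondrial uncoupler was the plate control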
#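 Stable cell line, 250 cells/well, 12 h attachment; compounds pinned at 5 concentrations, 24 h; CCCP control. Fixed with nuclear dye, primary antibodies 12 h at 10 degrees C, secondary plus cell stain; laser-scanning cytometer read.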
# TRPML1 ag = human mucolipin-1 channel agonism; Q9GZU1; TRPML1-expressing cells, Ca2+ dye fluorescence, FDSS; host cell line not named in the record; reference of the full effect not given here; activation, % (concentration not given with the values); 410,000 tested, 0.12% active; in the data active = activation above about 50%; inconclusive = about 30% to 50%; inactive = below about 30%; further: 0% is about no effect; the text of the record puts the active cut at 80%
#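 Calcium fluorescence on an FDSS kinetic reader gave the read-out. Tet-induced TRPML1-DL cells were plated overnight, dye-loaded (Ca8 with quencher, 45-90 min, room temperature, dark), then read 110 s after compound addition, and again 110 s after 4uM final 54-4 (EC80).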
# Six1-Eya2 inh = blocks human Six1 binding to Eya2. AID 651725. Q15475+O00167. activity change, % (test concentration not listed). AlphaScreen GST-Six1/His-Eya2 binding, biochemical; active compounds read low; control for the full effect not named in the record. 360,000 tested, 0.56% active; in the data active = activity change below about -65%; inconclusive = about -30% to -65%; inactive = above about -30%; further: on the % scale 0 is the no-effect control and ±100 the full control effect
# Target sequence (O00167 whole entry, looked up): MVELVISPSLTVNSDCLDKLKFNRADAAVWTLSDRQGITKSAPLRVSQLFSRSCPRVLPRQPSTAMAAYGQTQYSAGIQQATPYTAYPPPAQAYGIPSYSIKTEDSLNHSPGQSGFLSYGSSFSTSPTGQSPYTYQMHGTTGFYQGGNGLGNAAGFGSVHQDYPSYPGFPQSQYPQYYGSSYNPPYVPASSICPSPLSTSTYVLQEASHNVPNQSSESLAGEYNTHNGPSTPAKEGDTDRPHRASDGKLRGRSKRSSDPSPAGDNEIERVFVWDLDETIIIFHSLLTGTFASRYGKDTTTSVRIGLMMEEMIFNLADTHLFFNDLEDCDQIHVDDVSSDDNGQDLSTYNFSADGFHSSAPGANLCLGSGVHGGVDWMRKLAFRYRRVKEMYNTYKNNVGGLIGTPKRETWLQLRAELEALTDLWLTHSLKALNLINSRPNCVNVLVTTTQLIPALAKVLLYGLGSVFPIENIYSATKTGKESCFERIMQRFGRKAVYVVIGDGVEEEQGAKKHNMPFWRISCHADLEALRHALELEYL
# Target sequence (Q15475 whole entry, looked up): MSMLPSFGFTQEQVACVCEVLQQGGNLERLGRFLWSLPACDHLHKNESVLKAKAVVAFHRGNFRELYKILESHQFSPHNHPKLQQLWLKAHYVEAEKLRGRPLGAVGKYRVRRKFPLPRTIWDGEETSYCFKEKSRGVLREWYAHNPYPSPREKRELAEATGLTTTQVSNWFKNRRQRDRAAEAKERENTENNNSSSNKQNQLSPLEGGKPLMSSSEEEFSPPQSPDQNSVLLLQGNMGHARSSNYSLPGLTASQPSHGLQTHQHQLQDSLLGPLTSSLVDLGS
#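 GST-Six1 + His-Eya2 (5X stock: 250/500 nM); Tris pH 8.0, 300 mM NaCl, 0.05% BSA, 0.02% Tween 20; GSH donor/Ni acceptor beads; 1 h 37 °C dark; AlphaScreen readout.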
# * = called active by the depositor; ? = inconclusive; / = not tested or not shown; [ ] = dose if it differs, or a comment.
# Below each SMILES: D2 ag | CtBP-E1A inh | D2 potentiator | PINK1 modulator | TRPML1 ag | Six1-Eya2 inh
Clc1ccccc1-c1nc2ccccc2[nH]1
    1.3 | 5 | -4 | 4.4% | 0.1 | 1
CCOc1cc(/C=N/NC(=O)c2cc3c(ccc4ccccc43)o2)ccc1O
    12 | 5 | 13 | 2.1% | -0.1 | 11
Cc1cc(O)c(C(=O)/C=C/c2cccc([N+](=O)[O-])c2)c(=O)o1
    -3.6 | -6 | -3 | -2.0% | -0.3 | -22
COc1ccc(S(=O)(=O)NNC(=O)c2csc(-n3nc(C)cc3C(F)(F)F)n2)cc1OC
    -1.8 | -15 | -3 | 0.3% | 0.7 | -23
O=C(CN1CCN(S(=O)(=O)N2CCOCC2)CC1)Nc1cc(Cl)ccc1Cl
    -2.9 | 0 | -1 | 1.2% | 0.8 | 1
CCn1nnc(NC(=O)c2cc3ccccc3o2)n1
    1.6 | 5 | -7 | 2.4%[38.3 µM] | -0.7 | 4
CCOC(=O)C1=CCN(S(=O)(=O)c2ccccc2)C1c1ccc(Cl)cc1 (stereo not drawn)
    -4.2 | 2 | -3 | 4.3% | 0.1 | 5
O=C(NCC(c1ccccc1Cl)N1CCCC1)c1ccc(N2CCCC2=O)cc1 (stereo not drawn)
    -5.2 | 0 | -27 | -2.9% | 0.1 | -4
Cc1ccc(F)c(C(=O)N2CCCC(C)(C(=O)NS(=O)(=O)C3CC3)C2)c1F (stereo not drawn)
    -6.9 | 8 | -5 | 2.1% | -0.3 | 7
CCCOC(=O)c1ccc(NC(=O)c2ccccc2[N+](=O)[O-])cc1
    -19 | -12 | -6 | 3.1% | 2.5 | -2
O=C(OCC(=O)N1CCOCC1)c1ccccc1OCc1ccc(Cl)cc1
    3.0 | 7 | -1 | 9.5% | -0.6 | 11
CCn1c(SCC(=O)N2CC(=O)Nc3ccccc32)nnc1-c1ccoc1C
    -1.3 | 4 | -2 | -0.2% | 1.0 | -1
CN1C(=O)/C(=N/OC(=O)c2ccccc2)c2ccccc21
    -4.5 | 12 | -13 | 3.2% | -0.7 | -4
CC1C(=O)N2CCCc3cc(S(=O)(=O)N(C)c4ccccc4)cc1c32 (stereo not drawn)
    -2.4 | -12 | -15 | -0.7% | ? | -4
COc1ccccc1OCCN1CSC(=S)N(C)C1
    -1.9 | -6 | -34 | -3.1% | 2.0 | -6
O=C(N/N=C/c1cccnc1)NC12CC3CC(CC(C3)C1)C2
    -3.8 | -3 | -17 | 2.6% | 0.3 | 1
N#CC1=C(N)Nc2nc3ccccc3n2C1c1ccc(F)cc1 (stereo not drawn)
    0.4 | -8 | -17 | 12% | 0.7 | 2
Fc1ccc(-c2nc3ccccc3c3nc4ccccc4n23)cc1
    -1.4 | -1 | -4 | 6.3% | 0.5 | 0
COc1ccc(OCC(=O)NNC(=O)CCc2ccccc2)cc1
    3.7 | 0 | 3 | 12% | 0.6 | -3
O=C(COC(=O)CN1C(=O)c2ccccc2C1=O)Nc1ccccc1
    5.2 | -4 | -20 | -2.1% | -0.3 | -14
CCN(CC)CCNC(=O)c1ccc(NC(=O)c2cccc(S(=O)(=O)N3c4ccccc4CC3C)c2)cc1 (stereo not drawn)
    -2.3 | -17 | -15 | -1.3% | 0.5 | -5
CCOC(=O)c1ccc(N2CCOCC2)c(NC(=O)c2nccnc2C(=O)O)c1
    -2.8 | -18 | -11 | 0.3% | -0.1 | 1
CC1=CC(=C(C#N)C#N)C=C(C)N1CCN1CCNCC1
    -0.7 | 14 | -6 | 1.4% | 0.1 | 9
O=C(c1ccco1)N(Cc1ccc(Cl)cc1)Cc1ccco1
    6.3 | / | -1 | 1.2% | 16 | 5
CCOC(=O)CC(=O)CSc1ncnc2c1nnn2-c1ccc(F)cc1
    -5.0 | 23 | 1 | 2.4% | 0.3 | -3
Cc1c(C#N)c2ccccc2n1CC(=O)NCc1cccnc1
    -5.8 | 9 | -10 | -1.2% | 0.2 | 0
CN(C)S(=O)(=O)c1ccc(NC(=O)COC(=O)Cn2[nH]c(=O)c3ccccc3c2=O)cc1
    -1.8 | 5 | -12 | 1.4% | / | 3
Cc1cc(C(=O)N/N=C/c2cc([N+](=O)[O-])ccc2O)c2ccccc2n1
    -0.8 | 19 | -12 | -0.7% | -0.6 | -92*
CCCCCCCCN=C1NC(=O)CS1
    -0.9 | -3 | -5 | -10%[38.3 µM] | -0.2 | 3
CCCCn1cnc2c(cnn2-c2ccc(F)cc2)c1=O
    -2.3 | 3 | 2 | -1.5% | 0.0 | 5

# With a hit mark in Six1-Eya2 inh, of those listed so far:
compound | D2 ag | CtBP-E1A inh | D2 potentiator | PINK1 modulator | Six1-Eya2 inh
Cc1cc(C(=O)N/N=C/c2cc([N+](=O)[O-])ccc2O)c2ccccc2n1 | -0.8 | 19 | -12 | -0.7% | -92*

# Profiles as entered above. Order of screens: D2 ag	CtBP-E1A inh	D2 potentiator	PINK1 modulator	TRPML1 ag	Six1-Eya2 inh
# N#CC1=C(N)Nc2nc3ccccc3n2C1c1ccc(F)cc1 (stereo not drawn) in the list: 0.4	-8	-17	12%	0.7	2
# Clc1ccccc1-c1nc2ccccc2[nH]1 in the list: 1.3	5	-4	4.4%	0.1	1

# Continued.
# Below each SMILES: D2 ag | CtBP-E1A inh | D2 potentiator | PINK1 modulator | TRPML1 ag | Six1-Eya2 inh
COc1cc(-c2nc(-c3cccnc3)no2)cc(OC)c1OC
    0.6 | -14 | 3 | 0.4% | 0.0 | 1
NC(=O)c1cccnc1Nc1ccccc1Cl
    -7.5 | -2 | -4 | 3.4% | -0.7 | -7
CCCCc1c(C)c(C#N)c2[nH]c3ccccc3n2c1=O
    -3.4 | 3 | -9 | 40µM* | -0.7 | -10
N#Cc1c(C(F)(F)F)cc(-c2ccccc2)nc1SCC(=O)Nc1sc2c(c1C#N)CCC2
    -0.9 | -1 | -1 | 13µM* | 1.3 | 2

# 6 entries out of the list above, sorted by the value under CtBP-E1A inh, low to high:
Structure	CtBP-E1A inh
CC1C(=O)N2CCCc3cc(S(=O)(=O)N(C)c4ccccc4)cc1c32 (stereo not drawn)	-12
N#CC1=C(N)Nc2nc3ccccc3n2C1c1ccc(F)cc1 (stereo not drawn)	-8
COc1ccccc1OCCN1CSC(=S)N(C)C1	-6
O=C(N/N=C/c1cccnc1)NC12CC3CC(CC(C3)C1)C2	-3
NC(=O)c1cccnc1Nc1ccccc1Cl	-2
CCCCn1cnc2c(cnn2-c2ccc(F)cc2)c1=O	3

# 3 compounds already listed, ordered by count of non-hydrogen atoms, rising:
# Below each SMILES: D2 ag | CtBP-E1A inh | D2 potentiator | PINK1 modulator | TRPML1 ag | Six1-Eya2 inh
CCCCCCCCN=C1NC(=O)CS1
    -0.9 | -3 | -5 | -10%[38.3 µM] | -0.2 | 3
CCCCc1c(C)c(C#N)c2[nH]c3ccccc3n2c1=O
    -3.4 | 3 | -9 | 40µM* | -0.7 | -10
N#Cc1c(C(F)(F)F)cc(-c2ccccc2)nc1SCC(=O)Nc1sc2c(c1C#N)CCC2
    -0.9 | -1 | -1 | 13µM* | 1.3 | 2
